# High-throughput results: PubChem, Center for Chemical Genomics, University of Michigan
# HIV TAR-Tat – HIV-1 TAR-Tat binding disruption | AID 1259389 | actives 0.6% (n = 100,000) | HIV-1 TAR RNA, Tat peptide displacement FRET; active compounds read high | z-score (concentration not given with the values);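 also: score is relative to mean and SD of negative controls; some compounds called inactive have numbers as strong as hits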
# CDC25B CDK2 inh – human CDC25B-CDK2/CyclinA binding inhibition; P30305+P24941; AID 1259370; HTRF CDC25B-CDK2/CyclinA binding, anti-His/anti-Flag; active compounds read high; z-score (no concentration beside the values); actives 0.72% (n = 94,000);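 also: score is relative to mean and SD of negative controls; strong numbers were not always called active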
# The depositor's hits bear a star; · = not tested or not shown.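 The calls were made as follows: active = z-score from 3 up in half or more of its runs; inactive = the rest.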 An unsorted share of the library; any-hit rate near 0.87%.
# The line under a structure holds: HIV TAR-Tat | CDC25B CDK2 inh
> COc1ccc(Br)cc1CNC(=O)Cn1ncn2c(cc3sc(C)cc32)c1=O
 : -0.21 | -1.97
> CCOC(=O)COc1nc2ccc(Br)cc2c(-c2ccccc2)c1C(C)=O
 : · | 0.11
> CN(CC(=O)NCc1ccco1)S(=O)(=O)c1ccc2[nH]c3c(c2c1)CCCC3
 : 0.1 | ·
> Cc1nnc(NC(=O)c2cncc(Br)c2)s1
 : 1.49 | -0.54
> CCN(CC)CCCNc1ncnc2onc(-c3ccc(Cl)cc3)c12
 : 0.94 | -0.36
> CCOC(=O)c1c(Nc2c(C)cccc2C)sc(C(=O)c2ccc(Br)cc2)c1N
 : · | -0.93
> COC(=O)Cc1nc(-c2ccccc2)oc1C
 : · | -0.86
> Cc1cc(C)n2nc(NCc3cccc(Cl)c3)nc2n1
 : 0.87 | -2.53
> CCOC(=O)N1CC(=O)Nc2ccccc21
 : -0.96 | -1.5
> Cc1ccc(C)c(NS(=O)(=O)c2cc(-c3n[nH]c(=O)c4c3CCCC4)ccc2C)c1
 : -0.79 | 0.58
> O=C(Nc1nnc2n1CCS2)c1cc2ccccc2o1
 : 1.16 | ·
> Cn1c(=O)c2c(ncn2CCn2cnc3c2c(=O)n(C)c(=O)n3C)n(C)c1=O
 : · | 0.11
> O=C(C1=Cc2ccccc2OC1)N1CCCC1
 : 1.57 | ·
> Cc1cc2cc(CCNC(=O)C34CC5CC(CC(C5)C3)C4)c(=O)[nH]c2cc1C
 : · | -2.88
> O=C1c2[nH]nc(-c3ccccc3O)c2C(c2ccc(Cl)cc2)N1CCCO (centres undefined)
 : 0.71 | 0.52
> C=CCC1CC(=O)N(c2ccc(Cl)cc2)C1=O (centres undefined)
 : · | -0.94
> Cn1cc(-c2cc3n(n2)CCCN3C(=O)CCC(=O)N2CCOCC2)c2ccccc21
 : 1.44 | ·
> S=c1[nH]c(-c2ccccc2)cn1-c1cccc(Cl)c1
 : · | -1.95
> O=C(C1CCN(S(=O)(=O)c2ccc(Cl)cc2)CC1)N1CCCC(C(F)(F)F)C1 (centres undefined)
 : · | -0.81
> COc1cccc(-c2ncnn2-c2sc3c(c2C#N)CCCCC3)c1
 : 1.37 | 1.19

# Among those listed so far, 3 have a thiophene ring, fused or not:
# The line under a structure holds: HIV TAR-Tat | CDC25B CDK2 inh
> COc1ccc(Br)cc1CNC(=O)Cn1ncn2c(cc3sc(C)cc32)c1=O
 : -0.21 | -1.97
> CCOC(=O)c1c(Nc2c(C)cccc2C)sc(C(=O)c2ccc(Br)cc2)c1N
 : · | -0.93
> COc1cccc(-c2ncnn2-c2sc3c(c2C#N)CCCCC3)c1
 : 1.37 | 1.19

# (further entries)
# The line under a structure holds: HIV TAR-Tat | CDC25B CDK2 inh
> Cc1nc(-c2ccc(C)c(S(=O)(=O)N3CCCC3)c2)cs1
 : 1.06 | ·
> O=S(=O)(Nc1ccc2c(c1)OCO2)c1ccc(Cl)cc1
 : 0.16 | -1.34
> CN(Cc1ccccc1)c1oc(-c2ccc(COc3ccccc3)o2)nc1C#N
 : -0.79 | 1.1
> COc1ccc(-c2nnc(SC)o2)c(OC)c1
 : -0.55 | -1.87
> CCC1CCC2(CC1)NNC(=S)NN2
 : · | -0.51
> Cc1ccc(Sc2c(-c3ccccc3)nc3sccn23)cc1
 : 0.16 | ·
> COc1cc(N2COc3cc(C)c(Cl)c(C)c3C2)cc(OC)c1OC
 : · | -1.61
> CCOC(=O)c1sc2cccc(F)c2c1S(=O)(=O)Nc1ccc(F)c(Cl)c1
 : -1.05 | ·
> c1cnc2nc(SCc3cn4ccccc4n3)oc2c1
 : 0.27 | ·
> CC(C)C[C@@H](NC(=O)OCC1c2ccccc2-c2ccccc21)C(=O)O
 : 0.53 | ·
> COc1ccc2cc(C(=O)/C=C/N(C)C)ccc2c1
 : · | -1.28
> CCc1ccc(C23OC(=O)C(C)(C)C2OC(=O)C3(C)C)cc1 (centres undefined)
 : · | -3.07
> Cn1c(=O)oc2cc(NS(=O)(=O)c3cccs3)ccc21
 : -0.89 | ·
> CCOC(=O)C(C)Oc1ccc2c(=O)c(-c3csc(C)n3)coc2c1 (centres undefined)
 : · | -1.39
> CCOc1ccc(NC(=O)NC2COc3ccc(OC)cc3C2)cc1 (centres undefined)
 : 1.69 | ·
> CCc1nnc(NC(=O)CSCc2cc(=O)n3nc(C4CCCCC4)sc3n2)s1
 : 0.76 | ·
> COC(=O)c1ccc(Oc2nc3c(c(=O)n(C)c(=O)n3C)n2Cc2ccc(F)cc2Cl)cc1
 : · | -1.13
> COc1cc(NC(=O)CCS(=O)(=O)c2ccc3c(c2)oc(=O)n3C)cc(OC)c1
 : 1.24 | ·
> CCOC(=O)c1sc(Nc2cccc(Cl)c2C)nc1C
 : · | -0.76
> CC(C)(Oc1ccc(Cl)cc1)C(=O)Nc1nnc(C(C)(C)C)s1
 : -0.59 | -1.39
> Cc1nc(SCC(=O)Nc2c(C)cccc2C)c2c3c(sc2n1)CCC3
 : · | -1.35
> CCOC(=O)C(=CNc1sccc1C(=O)OC)C(=O)OCC
 : · | -0.02
> Cc1nn2c(c1-c1ccccc1)N=C(c1ccccc1)CC2c1ccco1 (centres undefined)
 : -7.68 | 0.27
> CCOCCCNC(=O)NCc1c(-n2cccc2)sc2c1CCN(C)C2
 : -7.38 | ·
> C=CCC(c1ccco1)N(C(C)=O)c1ccccc1 (centres undefined)
 : 0.55 | -0.21
> Cc1nn2c(-c3ccncc3)nnc2c2ccccc12
 : -1.1 | -1.46
> Fc1ccc(C2=NC(c3ccccc3)=Nc3ccccc3N2)cc1
 : 0.29 | 1.4
> N#Cc1nc(/C=C/c2cccs2)oc1N1CCN(C(=O)c2ccc(F)cc2)CC1
 : 1.37 | -1.51
> CCCC(O)c1nc2ccccc2n1Cc1ccc(C)cc1 (centres undefined)
 : 1.56 | -0.96
> CC1c2ccsc2CCN1C(=O)c1csc([N+](=O)[O-])c1 (centres undefined)
 : · | 0.3
> O=C(NCCCn1ccnc1)c1ccc(Br)o1
 : · | 0.47
> CCc1nnc2sc(-c3cc(C)nc4ccccc34)nn12
 : 2.33 | -1.15
> Cc1ccc2oc(C(F)(F)F)cc(=O)c2c1
 : 0.32 | -2.29
> CCN1CCN(CCCNC(=O)NC2COc3ccccc3C2)CC1 (centres undefined)
 : 0.42 | ·
> CCN(CC)CCNC(=O)c1sc2ncccc2c1-n1cccc1
 : 1.28 | ·
> Cc1ccsc1Cn1c(C)ccc1C
 : · | -1.02
> COc1ccc2cc3c(nc2c1)N(C(=O)c1ccc(OC)c(OC)c1)CC3
 : 0.01 | -0.91
> COC(=O)c1cccc(-n2c(=O)n(Cc3ccccc3)c(=O)c3[nH]cnc32)c1C
 : · | -0.79
> O=c1c(Cl)c(N2CCCCC2)cnn1-c1ccccc1
 : 0.01 | -0.46
> CSc1nnc2c(n1)OC(c1ccc(Br)cc1)Nc1ccccc1-2 (centres undefined)
 : -2.16 | -0.13
> COc1ccc(-c2cc3nc(C)cc(N4CCCC4)n3n2)cc1OC
 : 3.2 | -3.48
> COc1ccc(C)cc1S(=O)(=O)N1CCc2cc3cccc(C)c3nc21
 : 0.8 | -2.35
> CN(C)S(=O)(=O)N(C)Cc1ccccc1
 : -0.31 | -1.23
> O=C(C1CCC(CNc2c(N3CCCCC3)c(=O)c2=O)CC1)N1CCN(C2CCCC2)CC1 (centres undefined)
 : 2.78 | -1.03
> Cc1ccc(NS(=O)(=O)c2ccc(-c3cnc(C4CC4)o3)cc2)cc1
 : 1.22 | ·
> COc1ccc2c(c1)C=C(C(=O)NC1CCS(=O)(=O)C1)CO2 (centres undefined)
 : -0.13 | ·
> Cc1cc(C)c(C(=O)C2OC(=O)C(C)(C)C(=O)C2(C)C)c(C)c1 (centres undefined)
 : · | -0.87
> O=c1oc2ccccc2cc1S(=O)(=O)c1ccc(Br)cc1
 : · | -1.56
> Cc1nn(CC(O)Cn2c3ccc(Cl)cc3c3cc(Cl)ccc32)c(C)c1Br (centres undefined)
 : · | 1.22
> CC(=O)N1CCN(C(=O)C2(c3cccs3)CCOCC2)CC1
 : 1.3 | ·

# Later entries:
# The line under a structure holds: HIV TAR-Tat | CDC25B CDK2 inh
> O=C(COc1ccc(F)cc1)Nc1cccc(OCc2cc(=O)n3ccccc3n2)c1
 : 0.8 | ·
> COc1ccc2scc(N3CCN(c4ccccc4OC)CC3)c(=O)c2c1
 : -2.21 | ·
> CSc1ccc(CCNC(=O)c2ccc3c(c2)nc2n3CCOC2)cc1
 : 0.83 | ·
> CCc1cccc(NC2=NS(=O)(=O)C(c3cccc(Cl)c3)=C2C)c1
 : 2.01 | -1.95
> O=C1CCc2cc(S(=O)(=O)N3CCCC3C(=O)N3CCN(c4ccccc4)CC3)ccc2N1 (centres undefined)
 : 0.28 | -0.94
> COc1ccc(C2C3=C(CCCC3=O)Nc3nc(SCc4ccccc4Cl)nn32)cc1OC (centres undefined)
 : 1.68 | -1.37
> CC(C)NC(=O)c1cccn1-c1nnc(N2CCCCC2)s1
 : 0.37 | ·
> CS(=O)(=O)N1CCc2cc(-c3ccsc3)ccc21
 : 0.61 | -0.99
> Cc1ccc(Cl)cc1NC(=O)N1CCCC1c1cccs1 (centres undefined)
 : -0.43 | -1.68
> Cc1nn(C)c(NCc2cccs2)c1[N+](=O)[O-]
 : · | -0.75
> O=C(Nc1cc(=O)c2ccccc2o1)N1CCCCC1
 : 2.28 | -4.19
> CCOC(=O)C(=O)N1c2ccccc2Sc2ccccc21
 : -0.08 | 0.64
> Cc1ccc([N+](=O)[O-])cc1S(=O)(=O)Nc1cccc(C(F)(F)F)c1
 : · | -1.11
> Cc1cccc(C(=O)Nc2c(C)nc3cc(C)ccn3c2=O)c1
 : 1.47 | ·
> O=C1C=C(c2ccc(Br)cc2)OC(=O)C1C(=O)c1ccc(Br)cc1 (centres undefined)
 : · | -1.2
> CN1NC(c2ccccc2)/C(=N\OC(=O)Nc2ccccc2)SC1=S (centres undefined)
 : · | -0.8
> CC1=CC(C)C2(COC(=O)Nc3ccccc3)COC(c3ccccc3)C1C2C (centres undefined)
 : 1.48 | -1.33
> Cc1ccc(C2C=C(C(=O)O)Nc3ncnn32)s1 (centres undefined)
 : 1.38 | -0.79
> Cc1ccc(N(C)S(=O)(=O)c2cc(-c3cc(C)no3)ccc2C)cc1
 : -0.14 | ·
> CCOC(=O)COc1ccc2oc(C)c(C(=O)OC)c2c1
 : -0.11 | -2.31
> CC1CN=C(NC2CCCCC2)S1 (centres undefined)
 : · | -2.34
> COc1cccc(NS(=O)(=O)c2c(C)nc3sc(C)cn3c2=O)c1
 : 0.02 | ·
> CCc1nnc(NC(=O)CSc2ccc3nnc(-c4ccc(C)cc4)n3n2)s1
 : · | -1.02
> COc1ccc(CCN2CNc3c(c(=O)n(C)c(=O)n3C)C2)cc1
 : -1.3 | -1.79
> CCOC(=O)c1cnn2c1NC(c1ccc(C(C)C)cc1)CC2C(F)(F)F (centres undefined)
 : -0.31 | 1.08
> COc1ccc(OC)c(CNc2nc(-c3ccccc3)no2)c1
 : 0.11 | ·
> COc1ccc(OC)c(S(=O)(=O)Nc2cccc(-c3ccc(S(C)(=O)=O)nn3)c2)c1
 : -0.28 | ·
> Cc1nn(S(=O)(=O)c2ccccc2)c(C)c1Sc1ccc(Cl)cc1
 : 1.09 | -0.99
> Cc1cc(C)c2c(=O)cc(C(=O)N(Cc3ccc(C(C)(C)C)cc3)C3CCS(=O)(=O)C3)oc2c1 (centres undefined)
 : -0.51 | -2.43
> CCCc1cc(=O)n2nc(N(C)CC(=O)NCc3cccs3)sc2n1
 : 0.18 | -0.48
> O=C(CCS(=O)(=O)c1ccc2c(c1)CCN2C(=O)C1CC1)NCc1ccc(F)cc1
 : 0.32 | ·
> O=C(Nc1ccc(Cl)cc1)NC1CCCCNC1=O (centres undefined)
 : · | -1.36
> Cc1nnc(N2C(=O)c3oc4ccccc4c(=O)c3C2c2ccccc2F)s1 (centres undefined)
 : -0.27 | -0.64
> CC1CCCCC1NC(=O)c1cnn2c3c(cnc12)CCCC3 (centres undefined)
 : -0.43 | ·
> Cc1cccc(-c2nc(CCN(C)S(=O)(=O)c3ccc(C)c4nsnc34)no2)c1
 : 1.59 | ·
> O=C1c2ccccc2C(=O)N1c1ccc2nc(Sc3nc4ccc([N+](=O)[O-])cc4s3)sc2c1
 : · | -3.64
> CCOC(=O)CC(=O)CSc1ccc2nnc(-c3cccc(F)c3)n2n1
 : · | -1.74
> COCCN1C(=O)c2[nH]nc(-c3ccccc3O)c2C1c1cccc(OC)c1 (centres undefined)
 : 0.14 | -0.96
> CCOC(=O)c1c(S(=O)(=O)N(Cc2cccs2)C(C)C)c(C)n(C)c1C
 : 0.73 | ·
> O=C1CC(Cc2ccc(Cl)cc2)C(=O)N1c1ccccn1 (centres undefined)
 : 2.27 | -1.7
> COc1ccccc1NC(=O)CN(C1=NC2CS(=O)(=O)CC2S1)c1ccccc1F (centres undefined)
 : 1.46 | -0.17
> CCn1ccc2cc(S(=O)(=O)N3CCCC(C(=O)N4CCC(N5CCCCC5)CC4)C3)ccc21 (centres undefined)
 : 1.42 | ·
> CCOc1cc(-c2ccc(OC(=O)c3ccccc3F)cc2)cc(=O)c2c(C)oc(C)c12
 : 1.57 | -1.66
> CCS(=O)(=O)N1CCCc2ccc(NS(C)(=O)=O)cc21
 : 1.98 | ·
> COc1ccccc1-c1nc(COc2ccccc2-c2nnc(-c3ccccc3)o2)c(C)o1
 : -1.56 | ·
> COc1cc(CCN=Cc2ccccc2O)c([N+](=O)[O-])cc1OC
 : · | -0.93
> O=C(CC1=NS(=O)(=O)c2ccccc2N1)Nc1cccc(F)c1
 : -0.07 | ·
> COc1cc(NC(=O)c2ccccc2)c(C)cc1NC(=O)CC(CC(=O)O)c1ccccc1 (centres undefined)
 : · | 0.06
> C=CCN(CC=C)c1nc(-c2ccccc2)nc2ccccc12
 : 2.24 | -2.86
> CCCCOC(=O)CSc1nnc(-c2ccc(C)cc2)o1
 : 2.67 | -0.26
> CC(=O)n1nccc1-c1nccnc1C
 : · | 1.27
> CCN1CCN(c2nnc(-n3cccc3CNc3ccccc3Br)s2)CC1
 : 0.73 | ·
> O=C(Cn1cnc(S(=O)(=O)N2CCOCC2)c1)NC1CCCC1
 : 0.37 | ·
